Screens as filed in PubChem.
NPYLR7 ag = mosquito NPYLR7 agonism; HEK293T NPYLR7/Galpha15, GCaMP6s calcium fluorescence; AID 1259423; 270,000 compounds, 0.15% hits; activation, % at 10 µM; in the data active = activation above about 40%;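 also: 0% = vehicle and 100% = reference agonist at the receptor; some compounds past the cut are filed as inactive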
NPYLR7 ag max-min = further read-out of NPYLR7 ag, marked with its call; activation, %; measured here: Max-Min RFU normalised activation; some inactives read as strong as hits;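 span of the calcium signal over five minutes; 0% = vehicle and 100% = native peptide agonist; compound fluorescence can raise it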
An asterisk follows results filed as active. Only part of the results is shown; the hit share may differ from the screen's.

N#Cc1ccc(S(=O)(=O)N2CCC(CCc3ccccc3)CC2)cc1 was read as NPYLR7 ag 5 and NPYLR7 ag max-min 3.
For CN(C)C(=O)N1CCC(C(=O)N2CCCC(N(C)CCc3ccccc3)C2)CC1 (stereo not given) the results were NPYLR7 ag -5 and NPYLR7 ag max-min -8.
`O=c1c([N+](=O)[O-])c(N2CCCCC2)c2ccccc2n1-c1ccccc1` gave NPYLR7 ag 0 and NPYLR7 ag max-min -1.
Screening O=C(Nc1cccc(-n2cccn2)c1)C1CCCN(Cc2ccc(Cl)s2)C1 (stereo not given) returned NPYLR7 ag 4 and NPYLR7 ag max-min 5.
Screening COc1ccc(C2CC(c3c(O)cc(C)oc3=O)=NCCS2)c(OC)c1 (stereo not given) returned NPYLR7 ag -19 and NPYLR7 ag max-min -24.
`COc1ccc(C(C)N2CCCC(CCC(N)=O)C2)cc1Cl` (stereo not given) gave NPYLR7 ag 0 and NPYLR7 ag max-min 1.
COc1ccc(S(=O)(=O)Nc2cc(Sc3ncn[nH]3)c(O)c3ccccc23)cc1 was read as NPYLR7 ag 4 and NPYLR7 ag max-min 2.
For Cn1nccc1C(=O)N1CCC(c2n[nH]c(=O)n2Cc2ccccc2)CC1 the results were NPYLR7 ag 27 and NPYLR7 ag max-min 14.
For O=C(CC12CC3CC(CC(Br)(C3)C1)C2)Nc1nc2c(s1)CCCC2 the results were NPYLR7 ag 0 and NPYLR7 ag max-min 0.
For CCCc1nc(N2CCCN(S(=O)(=O)/C=C/c3ccccc3)CC2)c2c(-c3cccc(C(F)(F)F)c3)noc2n1 the results were NPYLR7 ag 17 and NPYLR7 ag max-min 13.
For Cc1ccnc(SCc2cc(=O)c(OC(=O)c3ccc(S(=O)(=O)N4CCCC4)cc3)co2)n1 the results were NPYLR7 ag -16 and NPYLR7 ag max-min -9.
Screening COC(=O)C1=C(C(=O)OC)C(CCc2ccccc2)N(c2ccccc2)C(C(=O)OC)=C1C(=O)OC (stereo not given) returned NPYLR7 ag -3 and NPYLR7 ag max-min -3.
For Cn1c(SCC(=O)N2CCN(CC(=O)N3CCCC3)CC2)nnc1C(F)(F)F the results were NPYLR7 ag 7 and NPYLR7 ag max-min 9.
CC(C)NC(=O)C(=O)NCC1CCCO1 (stereo not given) was read as NPYLR7 ag -2 and NPYLR7 ag max-min -2.
Screening COc1cccc(-c2cccc(NC(=O)C3CCCCN3C(=O)c3ccncc3)c2)c1 (stereo not given) returned NPYLR7 ag 17 and NPYLR7 ag max-min 4.
N#CC1C(=N)Oc2n[nH]c(-c3ccc4c(c3)OCO4)c2C1c1ccc(Cl)cc1 (stereo not given) was read as NPYLR7 ag 12 and NPYLR7 ag max-min 4.
For O=C1NC2(CCSCC2)Nc2c1sc1ccccc21 the results were NPYLR7 ag 2 and NPYLR7 ag max-min 1.
`COc1ccccc1N1CCN(CC(=O)c2c(C)[nH]c3ccccc23)CC1` gave NPYLR7 ag 15 and NPYLR7 ag max-min 4.
Screening COc1cc(NC(=O)c2cc(=O)c3cc(C)ccc3o2)cc(OC)c1OC returned NPYLR7 ag -1 and NPYLR7 ag max-min -4.
COc1ccc(NS(=O)(=O)c2c(Cl)cccc2Cl)c(C(=O)NCc2ccccc2)c1 was read as NPYLR7 ag -2 and NPYLR7 ag max-min 5.
Screening Cc1ccccc1CSc1nnc(C(C)NC(=O)c2ccc(Cl)c(Cl)c2)n1-c1ccc([N+](=O)[O-])cc1 (stereo not given) returned NPYLR7 ag 20 and NPYLR7 ag max-min 20.
O=C(C(OCC(F)(F)F)c1ccccc1)N1CCN(c2nccs2)CC1 (stereo not given) was read as NPYLR7 ag 1 and NPYLR7 ag max-min 12.
`CCOC(=O)c1nn(-c2ccccc2C)c(=O)cc1OS(=O)(=O)c1cccc(Cl)c1` gave NPYLR7 ag 3 and NPYLR7 ag max-min 2.
For CC1(C(=O)NCC2CC2)CCN1C(=O)c1ccco1 (stereo not given) the results were NPYLR7 ag 3 and NPYLR7 ag max-min 2.

4 structures from above, arranged by heavy-atom count, smallest number first:
CC(C)NC(=O)C(=O)NCC1CCCO1 (stereo not given) was read as NPYLR7 ag -2 and NPYLR7 ag max-min -2.
`COc1ccc(C(C)N2CCCC(CCC(N)=O)C2)cc1Cl` (stereo not given) gave NPYLR7 ag 0 and NPYLR7 ag max-min 1.
N#CC1C(=N)Oc2n[nH]c(-c3ccc4c(c3)OCO4)c2C1c1ccc(Cl)cc1 (stereo not given) was read as NPYLR7 ag 12 and NPYLR7 ag max-min 4.
For CCCc1nc(N2CCCN(S(=O)(=O)/C=C/c3ccccc3)CC2)c2c(-c3cccc(C(F)(F)F)c3)noc2n1 the results were NPYLR7 ag 17 and NPYLR7 ag max-min 13.

The results go on:
Screening CC1(C)C(=O)OC(c2cccs2)C(C)(C)C1=O (stereo not given) returned NPYLR7 ag 14 and NPYLR7 ag max-min 14.
For COc1ncccc1-c1ccc2nc[nH]c2c1 the results were NPYLR7 ag 4 and NPYLR7 ag max-min 0.
`CC1(Cc2ccc(Cl)c(Cl)c2)C(=O)Nc2ccc(OC(F)(F)F)cc21` (stereo not given) gave NPYLR7 ag 2 and NPYLR7 ag max-min 2.
For O=C(c1cccs1)N(CCN1CCOCC1)Cc1c(-c2ccccc2)noc1N1CCCCC1 the results were NPYLR7 ag 7 and NPYLR7 ag max-min 8.
`Cc1nc2cc(NC(=O)CCCCCNC(=O)OCc3ccccc3)ccc2s1` gave NPYLR7 ag 1 and NPYLR7 ag max-min -3.
`CCOc1ccc(-c2ccc(OCCNS(=O)(=O)c3cc(C)ccc3OC)nn2)cc1` gave NPYLR7 ag -3 and NPYLR7 ag max-min -3.
Screening CCOc1ccc(CN2CCN(c3nc(C)ccc3C(N)=O)CC2)cn1 returned NPYLR7 ag 3 and NPYLR7 ag max-min 2.
For Oc1ccccc1CNCCC12CC3CC(CC(C3)C1)C2 the results were NPYLR7 ag -10 and NPYLR7 ag max-min -14.
Screening CC(C)COc1nc(-c2ccc3c(c2)OCO3)n(-c2ccc(NC(=O)c3ccccc3Cl)cc2)n1 returned NPYLR7 ag -2 and NPYLR7 ag max-min 0.
Screening Cc1ccc(C(=O)NCCn2ncccc2=O)cc1C returned NPYLR7 ag 1 and NPYLR7 ag max-min 1.
Screening C#CCn1c(=NC(=O)c2ccccc2)sc2cccc(OC)c21 returned NPYLR7 ag 0 and NPYLR7 ag max-min -1.
For Cc1ccc(CC2(CCC(=O)N3CCCC3c3nc4ccccc4s3)CCC(=O)N2)cc1 (stereo not given) the results were NPYLR7 ag -1 and NPYLR7 ag max-min -9.
`CCCCC(=O)N(C)c1c(CC)nc2c(OCCOc3ccc(F)cc3)cccn12` gave NPYLR7 ag 3 and NPYLR7 ag max-min 6.
Screening Cc1nn(C)c(C)c1-c1cc(C(=O)N2CCOC(C(F)(F)F)C2)n(C)n1 (stereo not given) returned NPYLR7 ag 0 and NPYLR7 ag max-min -2.
Screening COC(=O)c1cccc(CC2(C)C(=O)Nc3ccc(S(=O)(=O)NC4CCCCC4)cc32)c1 (stereo not given) returned NPYLR7 ag -2 and NPYLR7 ag max-min -7.
For C#CCOc1c(I)cc(/C=N\Nc2nc3nonc3nc2Nc2ccc(I)cc2)cc1OC the results were NPYLR7 ag -1 and NPYLR7 ag max-min 9.
O=C(CN1CCSC1=O)NC1(c2ccc(Br)cc2)CCCC1 was read as NPYLR7 ag -1 and NPYLR7 ag max-min -3.
CCOC(=O)c1cc(CCC(C)C)n(-c2ccc(C(=O)NC(C)c3ccc(Br)cc3)cc2)n1 (stereo not given) was read as NPYLR7 ag 5 and NPYLR7 ag max-min 0.
Screening CCC(C(=O)NCCN1CCCC1)n1c(=O)n(-c2ccc(OC)cc2)c(=O)c2ccccc21 (stereo not given) returned NPYLR7 ag 3 and NPYLR7 ag max-min 11.
`C=CCNC(=O)NC(=O)CSc1nnc(-c2cccc(Cl)c2)o1` gave NPYLR7 ag 14 and NPYLR7 ag max-min 3.
`O=C(Nc1ccccc1CCO)c1cccc(CN2CC[C@H](O)C2)c1` gave NPYLR7 ag 3 and NPYLR7 ag max-min -1.
Screening CCN(CC)C(=O)c1cn(C2CCN(C(=O)C(C)(C)c3ccccc3)CC2)nn1 returned NPYLR7 ag 6 and NPYLR7 ag max-min -4.
`C=CCN(CC=C)C(=O)CSc1n[nH]c(-c2ccc(Br)cc2)n1` gave NPYLR7 ag -1 and NPYLR7 ag max-min 1.
Screening COC(=O)Cc1c(C)c2c(OCc3ccc(C(=O)OC)cc3)cc(C)cc2oc1=O returned NPYLR7 ag -10 and NPYLR7 ag max-min -16.

The list goes on, overlapping the part above by seven compounds.
CCOC(=O)c1cc(CCC(C)C)n(-c2ccc(C(=O)NC(C)c3ccc(Br)cc3)cc2)n1 (stereo not given) was read as NPYLR7 ag 5 and NPYLR7 ag max-min 0.
Screening CCC(C(=O)NCCN1CCCC1)n1c(=O)n(-c2ccc(OC)cc2)c(=O)c2ccccc21 (stereo not given) returned NPYLR7 ag 3 and NPYLR7 ag max-min 11.
`C=CCNC(=O)NC(=O)CSc1nnc(-c2cccc(Cl)c2)o1` gave NPYLR7 ag 14 and NPYLR7 ag max-min 3.
`O=C(Nc1ccccc1CCO)c1cccc(CN2CC[C@H](O)C2)c1` gave NPYLR7 ag 3 and NPYLR7 ag max-min -1.
Screening CCN(CC)C(=O)c1cn(C2CCN(C(=O)C(C)(C)c3ccccc3)CC2)nn1 returned NPYLR7 ag 6 and NPYLR7 ag max-min -4.
`C=CCN(CC=C)C(=O)CSc1n[nH]c(-c2ccc(Br)cc2)n1` gave NPYLR7 ag -1 and NPYLR7 ag max-min 1.
Screening COC(=O)Cc1c(C)c2c(OCc3ccc(C(=O)OC)cc3)cc(C)cc2oc1=O returned NPYLR7 ag -10 and NPYLR7 ag max-min -16.
For Ic1ccc(OCCCn2cnc3ccccc32)cc1 the results were NPYLR7 ag -4 and NPYLR7 ag max-min -3.
For Cc1ccc(C(=O)O)c(N2Cc3cnn(Cc4ccc(F)cc4)c3C2)n1 the results were NPYLR7 ag 1 and NPYLR7 ag max-min -4.
`CC(C)c1cccc(Oc2cnn(-c3ccc(F)cc3)c(=O)c2Nc2ccc(C(=O)NCCc3ccccn3)cc2)c1` gave NPYLR7 ag 13 and NPYLR7 ag max-min 9.
For Cc1ncc2c(c1CNC(=O)c1ccccc1F)CCN(C(=O)c1csc(-c3cccs3)n1)C2 the results were NPYLR7 ag -4 and NPYLR7 ag max-min -5.
For Cc1cc(C)n(-c2ccc(C(=O)OCC(=O)N(C)CCC#N)cc2)n1 the results were NPYLR7 ag 1 and NPYLR7 ag max-min 0.
For O=C(C1CCC1)N(Cc1cccc(F)c1)CC1CC(c2ccc(Cl)c(Cl)c2)=NO1 (stereo not given) the results were NPYLR7 ag 13 and NPYLR7 ag max-min 29.
`Fc1cccc(-n2c(-c3ccco3)nc3nc4ccccc4nc32)c1` gave NPYLR7 ag 5 and NPYLR7 ag max-min -2.
For COc1ccc(-c2ccc(=O)n(Cc3cccc(C(F)(F)F)c3)n2)cc1OC the results were NPYLR7 ag 11 and NPYLR7 ag max-min 5.
Screening CC(C)SC(NC(=O)OCc1ccccc1)C(=O)N[C@@H]1C[C@H]2CC[C@@H]1C2 (stereo not given in full) returned NPYLR7 ag -8 and NPYLR7 ag max-min -10.
COc1ccc(CCn2c(CN)n[nH]c2=O)cc1 was read as NPYLR7 ag 0 and NPYLR7 ag max-min -1.
For Cn1cc(C(=O)N2CCOCC2)cc(NC(=O)c2ccc(Cl)cc2)c1=O the results were NPYLR7 ag -12 and NPYLR7 ag max-min -17.
For O=C(Nc1ccccc1)N1CCN(Cc2ccc3c(c2)OCO3)CC1 the results were NPYLR7 ag 13 and NPYLR7 ag max-min 5.
For O=C(CN1C(=O)NC2(CCCC2)C1=O)NC1CCSc2ccc(F)cc21 (stereo not given) the results were NPYLR7 ag 13 and NPYLR7 ag max-min 14.
`C[C@H]1CC[C@]2(C)CCC(=O)C[C@H]2C1=O` gave NPYLR7 ag 17 and NPYLR7 ag max-min 13.
`CC(=O)Cc1nc2cccnc2nc1CC(C)=O` gave NPYLR7 ag 3 and NPYLR7 ag max-min 0.
CCCC1=NN(C(=O)Cc2ccc([N+](=O)[O-])cc2)C(O)(C(F)(F)F)C1 (stereo not given) was read as NPYLR7 ag 2 and NPYLR7 ag max-min 1.
For COc1ccccc1-c1noc(C(C)n2cccn2)n1 (stereo not given) the results were NPYLR7 ag 31 and NPYLR7 ag max-min 19.
Screening COCCNC(=O)Cn1cc(OC)c(=O)cc1CN1CCN(c2ccc(OC)cc2)CC1 returned NPYLR7 ag 2 and NPYLR7 ag max-min 0.
`COc1ccc(N2CCN(C(=O)c3csc(CSc4nnc(-c5ccncc5)n4-c4ccccc4C)n3)CC2)cc1` gave NPYLR7 ag -3 and NPYLR7 ag max-min 7.
`Cc1ccc(S(=O)(=O)N2CCN(CCO)CC2)cc1` gave NPYLR7 ag -1 and NPYLR7 ag max-min -1.
`Cc1c(C2CC2)nc2ccc(Br)cc2c1C(=O)O` gave NPYLR7 ag 6 and NPYLR7 ag max-min 2.
O=C(NCCCN1CCCC1=O)C(C1CCCC1)N1CCN(C(=O)C2CC2)CC1 (stereo not given) was read as NPYLR7 ag -3 and NPYLR7 ag max-min -6.
Cn1nnnc1SCCNCc1ccsc1 was read as NPYLR7 ag 2 and NPYLR7 ag max-min -2.
For CC1(C)OCC(C2OC(Nc3cccc(CC(=O)NCCCN4CCCC4=O)c3)[C@H]3OC(C)(C)O[C@@H]23)O1 (stereo not given in full) the results were NPYLR7 ag -4 and NPYLR7 ag max-min -8.
`CCOC(=O)N1CCN(C(=O)c2ccc(N3CCC(NCCc4cccc(Cl)c4)CC3)cc2)CC1` gave NPYLR7 ag 0 and NPYLR7 ag max-min -7.
`Cc1ccc2nc(SCC(=O)NC3CCCN(Cc4ccccc4F)C3)[nH]c2c1` (stereo not given) gave NPYLR7 ag 3 and NPYLR7 ag max-min 1.
